High-throughput results deposited in PubChem BioAssay by several laboratories.
A1 inh: caspase 3/7 activation in MEF A1-2A-BIM cells, primary screen, A1 inhibitor project, cell-based, luminescence, HTS; Caspase-Glo 3/7 luminescence, 3 h; percent of clofoctol response, vehicle zero; caspase activation, % (test concentration not listed); 330,000 tested, 0.066% active; AID 2462, 2010;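 active = over half of replicate activation scores above 10%, or exactly half above 10 with the replicate mean above 10; inconclusive = replicate mean below 10 yet half the replicates above 10; inactive = over half of replicates below 10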;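 note: wells of about 30 µL received 50 nL stock; many hits fall short of the cut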
UCH37 DUB inh: inhibitors of human UCH37 deubiquitinase, primary screen, biochemical, Ub-AMC cleavage, fluorescence; Ubiquitin carboxyl-terminal hydrolase isozyme L5 (Homo sapiens), Q9Y5K5; purified proteasome/UCH37; inhibition, % (no concentration beside the values); 330,000 tested, 0.33% active; AID 588478, 2011;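 active = mean of two replicates above 20%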;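 note: 0% = compound-free wells with enzyme and 100% = wells lacking proteasome; stock transfer was 100 nL into about 20 µL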
Target sequence (Q9Y5K5 whole entry, looked up): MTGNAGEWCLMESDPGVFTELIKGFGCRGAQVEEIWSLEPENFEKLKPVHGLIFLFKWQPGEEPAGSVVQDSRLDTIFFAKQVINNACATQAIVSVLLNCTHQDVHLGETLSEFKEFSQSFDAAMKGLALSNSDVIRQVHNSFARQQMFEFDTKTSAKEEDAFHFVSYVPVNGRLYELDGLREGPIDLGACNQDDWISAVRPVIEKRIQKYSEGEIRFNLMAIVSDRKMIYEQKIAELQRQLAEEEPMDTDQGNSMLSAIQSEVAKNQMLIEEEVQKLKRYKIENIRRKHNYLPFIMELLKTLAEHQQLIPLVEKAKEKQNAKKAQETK
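Reagent: Ub-AMC substrate; assay system: Proteasome-associated human UCH37 deubiquitinase; controls: no-proteasome and no-compound wells; read-out: % inhibition of Ub-AMC cleavage fluorescence; timing: 30 min preincubation with enzyme, 25 min cleavage at room temperature; signal: AMC fluorescence from Ub-AMC cleavage, excitation 355 nm, emission 460 nm; buffer or medium: Tris-HCl pH 7.4 plus ovalbumin, ATP-MgCl2, DTT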
LANA-H2A inh: blockers of LANA interaction with H2A/H2B – biochemical, FP readout, HTS, primary screen; Protein LANA1 (Human herpesvirus 8 type P (isolate GK18)), Q9QR71; inhibition, % (no concentration beside the values); 320,000 tested, 0.6% active; cell-free LANA-H2A/H2B peptide, fluorescence polarization; in the data active = inhibition mostly above about 10%, no sharp cut-off; inactive = mostly below about 6.7%;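 note: stock transfer was 7.5 nL into about 10 µL; 0% = median of vehicle wells and 100% = median of positive control wells; one replicate is shown; the record names a cut of 25% in any replicate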
Vif A3G: inhibitors of Vif binding to APOBEC3G peptide, primary screen, biochemical, TR-FRET, GST-Vif 1-94, biotin-A3G peptide, dose response retest (AID 1117319); Virion infectivity factor (Human immunodeficiency virus type 1 group M subtype B (isolate …; TR-FRET GST-Vif / biotin-A3G peptide binding; higher % means a stronger effect; test concentration not given here; strong numbers were not always called active; inhibition, %; hits with a dose series show IC50 in µM; 260,000 tested, 0.57% active;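 active = above the screen mean plus three standard deviations and confirmed in dose response; inconclusive = results disagree or hit not tested in dose response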;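 note: Vif residues 1-94 fused to GST binding biotinylated APOBEC3G peptide 110-148; 0% = full assay without inhibitor and 100% = GST in place of GST-Vif; retest series ran down from 100 µM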
Beta2AR agonist: beta2AR agonists driving receptor internalization, primary screen, cell-based, FAP fluorogen, flow cytometry; 340,000 tested, 0.43% active; Am2.2-beta2AR cells; reference of the scale not given here; response, % (test concentration not listed); AID 504454, 2011; Beta-2 adrenergic receptor (Homo sapiens), P07550;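 active = response above a set limit, near 3 SD of response in nonfluorescent compounds, cut at about 42% in these data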;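 note: stock transfer was 100 nL into about 11 µL; a reference agonist was the positive control; negative values mostly stem from fluorescent compounds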
Target sequence (P07550 whole entry, looked up): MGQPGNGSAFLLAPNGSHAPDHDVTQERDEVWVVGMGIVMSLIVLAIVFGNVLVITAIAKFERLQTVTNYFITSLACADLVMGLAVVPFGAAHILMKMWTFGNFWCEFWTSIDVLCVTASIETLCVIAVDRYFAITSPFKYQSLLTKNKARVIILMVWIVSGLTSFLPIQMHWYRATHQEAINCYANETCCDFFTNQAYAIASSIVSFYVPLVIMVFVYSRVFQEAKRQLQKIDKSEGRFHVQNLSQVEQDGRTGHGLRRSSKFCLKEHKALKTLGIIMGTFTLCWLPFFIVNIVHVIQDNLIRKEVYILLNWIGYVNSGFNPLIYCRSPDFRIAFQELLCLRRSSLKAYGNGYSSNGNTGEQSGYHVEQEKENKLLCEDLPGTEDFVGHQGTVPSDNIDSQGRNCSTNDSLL
HNF4A DNA FP: change in binding of human HNF4A to DNA, primary screen, biochemical, fluorescence polarization, FITC-DNA; Hepatocyte nuclear factor 4-alpha (Homo sapiens), P41235; activity change, % at 10 µM; 360,000 tested, 0.3% active; 1 h; in the data active = activity change above about 30%, passing the limit was not always enough;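 note: controls were the assay level and a saturating level of protein; the project sought stronger binding though the title names inhibitors; some compounds called inactive have numbers as strong as hits; positive values seem to mean higher polarization but the record does not say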
E coli growth: E. coli growth inhibition, primary screen, OD600. Escherichia coli growth, 23 h; hits give low values. OD600 absorbance (no concentration beside the values). 330,000 tested, 0.21% active;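 active = OD600 absorbance below the run mean of sample wells minus 3.6 SD, in any replicate, cut at about 0.56 in these data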;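 note: stock transfer was 300 nL into about 60 µL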
Starred values were filed as active, the others as inactive; ? = inconclusive; / = not tested or not shown; & = joins results of further samples. Rows are unselected; any-hit rate near 2.1%.

SMILES	A1 inh	UCH37 DUB inh	LANA-H2A inh	Vif A3G	Beta2AR agonist	HNF4A DNA FP	E coli growth
Cc1nc(N)sc1N=Nc1ccccc1C(F)(F)F	-0.1	4.2	3.4	/	7	3.1	0.63
CCOC(=O)C(=O)/C(=C\N(C)C)c1onc(-c2ccccc2Cl)c1C(=O)OC	1.5	8.0	2.6	4%	13	-0.7	0.79
CC(=O)C1=C(c2ccccc2)NC(=S)NC1c1ccc(O)c(O)c1 (stereo not drawn)	-0.4	2.5	0.8	/	7	-0.3	0.67
O=C(COC(=O)/C=C/c1cccc(F)c1)NC(=O)NCc1ccccc1	-0.3	2.5	3.3	/	5	1.3	0.74
CCOc1nc(SCCOc2ccc(C)cc2)nc(N(C)C)n1	-0.3	-0.1	2.0	25%	3	-1.4	0.73
COc1ccc(CCNC(=O)c2cc(C)oc2C)cc1OC	0.0	0.7	-1.2	/	0	0.2	0.71
CCOc1ccc(OCC)c(NC(=O)CSc2nc3c(c(=O)n(C)c(=O)n3C)n2C(C)C)c1	-0.1	3.7	4.1	32%&5%	3	-1.4	0.73
O=S(=O)(/N=C(/Nc1ccc(Cl)c(S(=O)(=O)Nc2ccccc2Cl)c1)c1ccc(F)cc1)c1ccccc1	-0.5	2.5&1.7	-2.5	-7%&-6%	1&1	-0.2&-1.4	0.71&0.7
CN1CCN(c2nnc(-c3cccs3)c3ccccc23)CC1	1.3	1.7	-4.7	3%	-13	4.3	0.72
COc1cccc(N2CCN(C(=S)Nc3ccccc3OC)CC2)c1	-0.6	-0.3	1.0	/	-9	4.7	0.67
O=S(=O)(c1ccc(OCC(O)CNCc2ccco2)c(Cl)c1)N1CCOCC1 (stereo not drawn)	-0.4	2.8	1.6	-1%	-4	-2.4	0.75
O=[N+]([O-])c1cc(C(F)(F)F)ccc1N1CCCC(O)C1 (stereo not drawn)	-1.2	3.2	0.4	13%	-8	2.4	0.66
Cc1ccc(C)c(N(C(=O)c2nsc(Cl)c2Cl)C(C(=O)NC2CCCC2)c2ccc(O)cc2)c1 (stereo not drawn)	-0.5	1.8	-2.3	/	10	-0.9	0.66
O=C(Nc1ccc2c(c1)N(S(=O)(=O)c1cccs1)CCC2)c1c(F)cccc1F	-0.2	1.4	-3.1	0%	0	-0.3	0.71
Cc1cccc(C)c1NC(=O)NC1(C(=O)NCCN2CCOCC2)CCCCC1	1.1	4.2	0.0	2%	-5	-2.8	0.71
CC(Sc1n[nH]c(=O)[nH]c1=O)C(=O)OCc1ccccc1 (stereo not drawn)	0.1	-2.7	4.0	18%	-2	-1.8	0.76
CCc1nc(SCC(=O)Nc2ccc(N(C)C)cc2)c2ccccc2n1	0.5	6.7	-4.8	1%	-23	3.0	0.65
CCO[C@H]1OC(C(=O)N2CCCCCCC2)=C[C@@H](C2CCCCC2)[C@@H]1CCCO	-0.1	-0.2	0.0	/	-6	0.5	/
CCC(C)(C)NC(=O)C1CCN(S(=O)(=O)c2cccs2)CC1	/	-0.2	/	0%	-7	0.8	0.67
CSCC(=O)Nc1ccc(F)c(Cl)c1	-0.9	4.7	0.1	-8%	-2	-2.4	0.66
C=CCn1cc(C(=O)N2CCN(CC)CC2)c(=O)c2cc(S(=O)(=O)N(CC)CC)ccc21	-0.4	6.1	1.3	2%	10	0.2	0.7
Cc1ccnc(NC(=O)c2ccc(S(=O)(=O)N3CCCC3)cc2)c1	-0.5	1.0	-2.0	/	2	3.9	0.71
CCN(C[C@H]1N[C@@](C)(C(=O)OC)[C@H]2C(=O)N(Cc3ccccc3)C(=O)[C@@H]12)C(=O)NC(C)C	0.9	5.3	2.0	-1%	-3	1.6	0.72
OCC[C@H]1C[C@H](O)[C@@H](O)[C@]2(CCc3ccccc3O2)O1	0.2	8.7	7.6	/	-9	0.0	/
Cc1csc2ncc(C(=O)NCc3ccccc3Cl)c(=O)n12	1.1	-202	1.0	19%	5	5.2	0.72
COc1ccc(CNC(=S)Nc2cccc(Cl)c2)cc1	0.0	3.5	7.0	/	10	-0.5	0.67
O=C1C2(CCCC13COC(c1ccc(O)cc1)OC3)COC(c1ccc(O)cc1)OC2 (stereo not drawn)	0.2	3.3	1.1	/	/	/	0.72
O=C(Nc1cc(Cl)ccc1F)c1ccc(-n2cncn2)c([N+](=O)[O-])c1	0.0	2.2	/	5%	-1	3.8	0.64
CCOC(=O)N1CCC(NC(=O)CC2C(=O)NCCN2Cc2ccccc2F)CC1 (stereo not drawn)	0.5	-3.0	1.3	/	-2	0.1	0.7
O=C(c1ccc(CS(=O)(=O)c2ccc(Br)cc2)o1)N1CCCCCC1	0.8	3.9	-1.0	10%	-7	2.1	0.74

Copied from the entries so far, 3 compounds:
SMILES	A1 inh	UCH37 DUB inh	LANA-H2A inh	Vif A3G	Beta2AR agonist	HNF4A DNA FP	E coli growth
O=C1C2(CCCC13COC(c1ccc(O)cc1)OC3)COC(c1ccc(O)cc1)OC2 (stereo not drawn)	0.2	3.3	1.1	/	/	/	0.72
O=C(Nc1cc(Cl)ccc1F)c1ccc(-n2cncn2)c([N+](=O)[O-])c1	0.0	2.2	/	5%	-1	3.8	0.64
CCOC(=O)N1CCC(NC(=O)CC2C(=O)NCCN2Cc2ccccc2F)CC1 (stereo not drawn)	0.5	-3.0	1.3	/	-2	0.1	0.7

(cont.)
SMILES	A1 inh	UCH37 DUB inh	LANA-H2A inh	Vif A3G	Beta2AR agonist	HNF4A DNA FP	E coli growth
O=C(CSCSCC(=O)Nc1ccc2c(c1)OCO2)Nc1ccc2c(c1)OCO2	-0.3	3.6	-4.5	4%	-2	-1.4	0.68
O=C(NC(c1ccc(Cl)cc1)c1cc(Cl)c2cccnc2c1O)c1cccnc1 (stereo not drawn)	0.0	2.0	-163	?	17	2.3	/
Cc1ccnc(NS(=O)(=O)c2ccc(NS(=O)(=O)Cc3ccccc3)cc2)n1	1.0	1.9	-2.4	14%	2	3.1	0.69
CCOC(=O)N1CCN(C(=O)C(NC(=O)c2ccc(C(C)(C)C)cc2)C(C)C)CC1 (stereo not drawn)	0.9	2.7	1.4	-4%	-3	-1.9	0.69
COc1ccccc1CNS(=O)(=O)c1cc(-c2cc(C)no2)ccc1C(C)C	2.0	4.7	3.0	/	3	0.7	0.7
Cc1ccc(SCC(=O)c2cc(C)c(O)c(C)c2)cc1	-2.7	1.9	-1.0	-9%	4	-2.5	0.6
CC(C)OC(=O)/C(=C/c1ccco1)c1ccccc1	-0.5	/	0.9	/	-4	2.3	/
C/C=C\C=C\C(=O)N1CC2(CC(c3cccc(NC(=O)CC(c4ccccc4)c4ccccc4)c3)=NO2)C[C@H]1C(N)=O (stereo partly drawn)	-0.3	1.1	5.7	33%	3	-2.4	/
Cn1c(=O)c2c(nc(OCc3cccnc3)n2Cc2c(F)cccc2Cl)n(C)c1=O	0.9	5.4	3.2	1%	-14	2.9	0.75
CCOc1ccc(-c2cc(C(=O)N3CCN(c4ccccn4)CC3)c3ccccc3n2)cc1	-0.1	-21	2.1	?	20	-1.3	0.74
Cn1c(-c2csc(-c3ccccc3)n2)n[nH]c1=S	-0.5	0.0	-13	-5%	-7	-7.4	0.71
CN1CCN(c2ccccc2NC(=O)Cc2cn(C)c3ccccc23)CC1	0.1	4.4	1.2	1%	-2	3.5	0.75
COc1ccc(CN2CC(C(=O)N3CC(C)CC(C)C3)CC2=O)cc1 (stereo not drawn)	0.8	0.5	-3.9	-4%	-2	-4.0	0.69
Cc1cccc(OCCSc2nc3ccccc3n2CC(=O)O)c1	0.3	6.8	3.6	/	-1	-2.0	0.69
CSC(=CC(=O)c1ccc(F)cc1)SC	-1.1	11	12	1%	0	1.1	0.68
CCN(CC)NC(=S)Nc1ccccc1	0.5	5.0	-2.6	7%	17	-0.1	0.66
CC1CN(S(=O)(=O)c2ccc(Cl)c(S(=O)(=O)N3CC(C)OC(C)C3)c2)CC(C)O1 (stereo not drawn)	-0.3	0.9	-1.4	?	1	1.8	0.7
O=C1/C(=C\c2ccco2)CCC/C1=C\c1ccco1	0.2	-1.9	5.2	3.1µM*	-5	62	0.72
CCN(CC)S(=O)(=O)c1ccc(C(=O)OCC(=O)N2CCN(C(=O)c3ccco3)CC2)cc1	0.8	0.8	-1.6	-3%	3	-1.6	0.77
COc1ccc(Cl)cc1N(C)C(=O)CCNC(=O)Cn1cnc2ccccc2c1=O	0.9	2.0	4.5	72%	-9	-0.6	0.68
COc1ccc(-n2nnnc2/C=C\Nc2ccc(C)cc2)cc1	0.7	-3.2	-0.1	-19%	12	-1.4	0.66
CC[C@]1(C(=O)OC)[C@H]2C(=O)N(C)C(=O)[C@H]2[C@H]2CN=C(SCc3ccc(OC)cc3)N21	/	4.5	/	1%	-1	-2.3	0.7
C=CCSc1nc(N)c2c3c(sc2n1)CN(C)CC3	0.1	-7.8	3.5	-18%	14	4.5	0.66
COCCN(C(=O)COC(=O)CCCc1c[nH]c2ccccc12)c1c(N)n(Cc2ccccc2)c(=O)[nH]c1=O	/	-0.1	/	/	-4	-3.4	0.67
CCCS(=O)(=O)C/C(N)=N/OC(=O)c1ccccc1Cl	-1.7	1.0	-0.2	?	-2	-0.3	0.7
CCOC(=O)c1c(CSc2ccsc2)n(C)c2cc(Br)c(O)c(CN(C)C)c12	-1.2	8.1	4.8	?	-1	-0.1	0.68
C/C(CC(=O)Nc1ccccc1-c1ccccc1)=N\NC(=O)COc1ccc(C)cc1Br	0.1	/	0.1	19%	-15	6.5	/
O=C(OCC(=O)N1CCCc2ccccc21)c1cccc(C(F)(F)F)c1	-1.0	2.9	-2.5	-1%	1	-2.6	0.7
Cn1c(CNC(=O)CNS(=O)(=O)c2ccc(Br)cc2)cc(=O)n(C)c1=O	0.0	1.0	-2.1	/	3	-0.9	0.72
Cc1ccc(S(=O)(=O)CCC(=O)OCc2cc(C)ccc2C)cc1	-0.1	0.2	2.2	4%	1	-1.0	0.68
CCN(CCCNC(=O)COc1cc(=O)n(CC)c2ccccc12)c1ccccc1	0.7	3.2	0.7	?	0	-1.8	0.72
CCN(CC)CCN1C(=O)C2C(C(=O)Nc3cc(C)cc(C)c3)C3C=CC2(O3)C1C(=O)NC1CCCCC1 (stereo not drawn)	0.0	0.0	-0.3	/	2	1.5	0.69
CCOC(CNC(=O)C(=O)Nc1cc2c3c(c1)CCN3C(=O)CC2)OCC	1.1	6.3	-3.8	/	3	1.2	0.62
CCC(C)NS(=O)(=O)c1ccc(OCC(=O)Nc2ccc3c(c2)OCCO3)cc1 (stereo not drawn)	-0.4	0.2	-0.7	-2%	8	-4.2	0.65
Cc1[nH]nc2oc(=O)c(CCO)c(C)c12	-0.8	0.5	3.1	1%	7	-0.4	0.69
Cc1onc(-c2ccccc2)c1C(=O)NNC(=O)c1ccccc1O	-0.6	3.2	-2.8	1%	7	-1.3	0.68
Cc1c(Br)c([N+](=O)[O-])nn1CC(=O)N1CCN(Cc2ccccc2)CC1	0.5	6.6	-4.8	/	0	-1.3	0.71
Cc1cc(C)cc(OCC(=O)OCC(=O)N2CCc3ccccc32)c1	0.2	4.9	-3.3	-2%	-5	0.8	0.67
